# AID923 – qHTS Assay for Allosteric/Competitive Inhibitors of Caspase-1: Spectroscopic Profiling in AFC Spectral Region | AID 923, 2007 | Potency, µM (top dose mostly 57.5 µM), inactives show at the top dose fluorescence increase, most hits filed as activators | actives 1.1% (n = 75,000) | compound fluorescence, AFC spectral region (405/520 nm); almost no hit is shown here; active means well fitted activation curve with a large enough effect; inconclusive means small, poorly fitted or top-dose-only effect;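 further: potency means the concentration at half of the fitted maximal effect; 0% is about no effect; scaled to a free AFC standard on each plate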
#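 Titrations up to 57 uM read every 20 sec for 3 min (405/520 nm) with 50 nM caspase 1 and 5 uM Ac-WEHD-AFC, pH 7.5 HEPES buffer. Fluorescence-vs-time intercept gave baseline, scaled against on-plate AFC standard.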
# TSHR ag – activates the human thyroid stimulating hormone receptor | HEK293-CNG-TSHR cells (CNG channel as cAMP sensor), membrane potential dye, cAMP | P16473 | actives 0.48% (n = 73,000) | Potency, µM (doses to about 57.1 µM), for the others: at the highest dose activation, usual class: activators | AID 926; active = well fitted activation curve of enough size with the parental cells flat; inconclusive = any curve in the parental cells; inactive = parental cells flat and receptor cells flat or falling; further: potency means the concentration at half of the fitted maximal effect; % of control where 0% means no effect; weak receptor curves with flat parental cells got no call and are not listed
# Target sequence (P16473 whole entry, looked up): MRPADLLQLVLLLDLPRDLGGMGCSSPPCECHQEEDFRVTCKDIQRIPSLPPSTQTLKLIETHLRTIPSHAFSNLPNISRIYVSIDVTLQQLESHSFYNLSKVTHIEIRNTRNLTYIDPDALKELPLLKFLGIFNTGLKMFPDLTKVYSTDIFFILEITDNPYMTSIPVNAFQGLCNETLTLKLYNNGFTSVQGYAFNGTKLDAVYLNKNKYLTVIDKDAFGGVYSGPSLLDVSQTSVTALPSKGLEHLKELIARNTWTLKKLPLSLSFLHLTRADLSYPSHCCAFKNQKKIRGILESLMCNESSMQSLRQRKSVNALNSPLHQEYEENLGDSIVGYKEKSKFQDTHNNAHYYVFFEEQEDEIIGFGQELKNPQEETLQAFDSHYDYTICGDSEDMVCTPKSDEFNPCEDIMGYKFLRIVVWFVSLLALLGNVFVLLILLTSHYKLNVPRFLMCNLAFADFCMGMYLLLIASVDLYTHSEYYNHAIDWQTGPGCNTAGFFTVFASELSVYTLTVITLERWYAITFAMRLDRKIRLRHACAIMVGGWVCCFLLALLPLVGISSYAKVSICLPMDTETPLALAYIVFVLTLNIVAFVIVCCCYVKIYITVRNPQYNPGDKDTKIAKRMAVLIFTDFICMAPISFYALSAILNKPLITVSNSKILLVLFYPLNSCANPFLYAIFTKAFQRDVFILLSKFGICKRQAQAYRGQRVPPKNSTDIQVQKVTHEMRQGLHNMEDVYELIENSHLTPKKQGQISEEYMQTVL
#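 cAMP rise detected as CNG-channel membrane depolarization by fluorescent dye (emission 590 nm), 30 min after compound, following 60 min dye loading containing 100 uM RO 20-1724 at room temperature. Cells: TSHR/CNG HEK 293, with parental CNG HEK 293 as control.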
# Resorufin autofl – compounds fluorescent in resorufin spectral region. Compound fluorescence, resorufin region 547/598 nm, buffer; stronger effect = higher value. actives 0.04% (n = 59,000). AID 588. max dye-equivalent concentration, M; active = above 10 nM dye equivalent; inconclusive = 1 to 10 nM; inactive = 1 nM or less; a few of its hits are not listed in these tables; further: highest value over a series up to 38 µM
#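 Read-out: intrinsic compound fluorescence at ex 547/em 598 nm after 15 min at RT in pH 8.0 Tris (100 mM). Values expressed as resorufin-equivalent concentration from per-plate standard series.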
# A488 autofl – A488 region autofluorescence; compound autofluorescence, A488 spectral region, dye equivalency; stronger effect = higher value; max dye equivalency, M; actives 0.1% (n = 59,000); active = above 10 nM dye equivalent; inconclusive = 1 to 10 nM; inactive = 1 nM or less; about half of its hits are not listed in these tables;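 further: highest value over a series up to 38 µM; compound alone in buffer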
#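 Readout is A488 dye-equivalent concentration, calibrated by a per-plate six-point Alexa 488 series. Compounds in 100 mM Tris buffer pH 8.0 were incubated 15 min at room temperature. Plates were imaged using 480 nm excitation/540 nm emission filters.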
# A647 fluor – A647 region autofluorescence. 59,000 tested, under 10 active. Compound fluorescence, A647 channel (570/671 nm), Tris buffer. max dye-equivalent concentration, M; active means above 1 µM dye equivalent; inconclusive means 0.1 to 1 µM; inactive means 0.1 µM or less;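 further: values scaled relative to a standard on each plate; highest value over a series up to 38 µM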
#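 Each compound's intrinsic fluorescence at 570 nm excitation and 671 nm emission is measured across its concentration series in 100 mM Tris, pH 8.0, after 15 min at room temperature, and reported relative to an A647 curve.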
# Active calls of the source: *; i = inactive; ? = inconclusive; / = not tested or not shown; & = joins results of further samples; [ ] = dose if it differs, or a comment. An excerpt. The share of hits here may be higher or lower than overall.
# Screens in order – AID923, TSHR ag, Resorufin autofl, A488 autofl, A647 fluor
CCCn1c(C(O)c2ccc(OCC)cc2)nc2ccccc21 (centres undefined)
→ -0.6%, 15%, /, /, /
O=C(C1CCCCC1)N(Cc1nc2sc3c(c2c(=O)[nH]1)CCCC3)Cc1cccs1
→ 2.8%, ?, i, i, 1.2e-08
O=C(Nc1cc(C(=O)Nc2ccc(S(=O)(=O)O)cc2S(=O)(=O)O)cc(C(=O)Nc2ccc(S(=O)(=O)O)cc2S(=O)(=O)O)c1)Nc1cc(C(=O)Nc2ccc(S(=O)(=O)O)cc2S(=O)(=O)O)cc(C(=O)Nc2ccc(S(=O)(=O)O)cc2S(=O)(=O)O)c1
→ 3.6%&5.4%, 3%&12%, i, i, 3.9e-08
O=c1[nH]cnc2nn(-c3ccccc3)nc12
→ 0.2%, -4%, i, i, 1e-09
Cc1ccc(Cl)cc1N1CCN(Cc2nnnn2C2CCCCC2)CC1
→ 0.7%, ?, i, i, 9.7e-09
CCC(=O)c1cccc2c1N=CC1=C(CC(C)(C)CC1=O)N2
→ -1.9%, ?, i, i, 2.1e-08
O=c1c(-c2cccc(F)c2)nc2cncnc2n1Cc1ccccc1Cl
→ 5.7%, -19%, i, i, 1.9e-09
COc1ccccc1CNC(=O)COC(=O)C1=COCCO1
→ -0.8%, 2%, i, i, 1e-09
NC(=O)C1C(c2ccccc2)=C1c1ccccc1
→ -1.3%, 8%, /, /, /
CCN(CC)S(=O)(=O)c1cc(C(=O)NC2CCCCC2)ccc1C
→ -0.8%, ?, /, /, /
CC1CN(CC(O)COc2ccc(C(=O)c3ccccc3)cc2)CC(C)O1 (centres undefined)
→ 2.6%, -6%, i, i, 3.2e-08
CCCn1c(-c2ccc(F)cc2)nc2c(N3CCCN(Cc4ccccc4)CC3)nc(C)nc21
→ 0.7%, ?, /, /, /
CCCCCN(C(=O)NC(=O)Nc1ccccc1OC)S(C)(=O)=O
→ 1.7%, 5%, i, i, 3.3e-08
COc1ccc(S(=O)(=O)N(C)CC(=O)NCc2cccnc2)cc1
→ 0.6%, 9%, i, i, 3.3e-09
O[C@@H](COc1cccc2ccccc12)CN1CCOCC1
→ 0.2%[11.5 µM], 1%[11.4 µM], i, i, 3e-08
CC(C)NC(=O)Cn1cnc2c1c(=O)n(C)c(=O)n2C
→ -2.4%, -2%, i, i, 6.2e-09
Fc1ccc(Cn2nnc(-c3ccc(CN4CCOCC4)cc3)n2)cc1
→ 0.5%, 10%, i, i, 1.7e-08
CN(Cc1nc2ccccc2c(=O)[nH]1)CC(O)COCc1ccco1 (centres undefined)
→ 1.5%, ?, i, i, 1e-09
O=C(Nc1cccc2nsnc12)c1ccc(F)cc1
→ 12%, 12%, i, i, 3.5e-09
Cc1c(NC(=O)CCCCCN2C(=O)C3C4C=CC(C4)C3C2=O)c(=O)n(-c2ccccc2)n1C (centres undefined)
→ -1.6%, 1%, /, /, /
CC[C@H](C(=O)[C@H](C)[C@H](O)[C@H](C)CCc1ccc(C)c(O)c1C(=O)O)[C@H]1O[C@](CC)([C@@H]2CC[C@@](O)(CC)[C@H](C)O2)C[C@H]1C
→ -2.3%[25.7 µM], 21%[25.6 µM], i, i, 1.1e-08
CCC1Oc2ccc(C)cc2N(CC(=O)NCCc2ccc(OC)c(OC)c2)C1=O (centres undefined)
→ 3.6%, ?, /, /, /
CCN(CC)CCn1c(=S)[nH]c2cc3c(cc2c1=O)OCO3
→ -0.7%, 10%, i, i, 1e-09
c1ccc2c(c1)NC(CN1CCOCC1)CO2 (centres undefined)
→ -1.4%, -3%, i, i, 1.9e-08
Cc1c2cnn(-c3ccccc3)c(=O)c2c(C)n1CCCC(=O)N1CCN(C)CC1
→ -3.1%, 1%, /, /, /
COc1cc(Cl)cc(NC(=O)CCN2CCN(C)CC2)c1
→ -0.3%, 5%, i, i, 9.9e-09
CC(=O)OCC1OC(C#CCCCc2ccccc2)C=CC1OC(C)=O (centres undefined)
→ 1.4%&-1.8%[11.5 µM], ?, /, /, /
CC(C)CN1CC2(CCN(C(=O)c3ccco3)CC2)C1
→ 2.3%, ?, i, i, 1e-09
COc1cc(OC)cc(C(C)=O)c1
→ -1.6%, 25%, i, i, 4.6e-08
CCOC(=O)CSc1nnc([C@H](Cc2ccccc2)NC(=O)OC(C)(C)C)o1
→ -1.1%, /, i, i, 7e-09

# Part of the list above with just A488 autofl, AID923 and A647 fluor:
mol	A488 autofl	AID923	A647 fluor
CC(=O)OCC1OC(C#CCCCc2ccccc2)C=CC1OC(C)=O (centres undefined)	/	1.4%&-1.8%[11.5 µM]	/
COc1ccccc1CNC(=O)COC(=O)C1=COCCO1	i	-0.8%	1e-09
CCN(CC)S(=O)(=O)c1cc(C(=O)NC2CCCCC2)ccc1C	/	-0.8%	/
CC[C@H](C(=O)[C@H](C)[C@H](O)[C@H](C)CCc1ccc(C)c(O)c1C(=O)O)[C@H]1O[C@](CC)([C@@H]2CC[C@@](O)(CC)[C@H](C)O2)C[C@H]1C	i	-2.3%[25.7 µM]	1.1e-08

# Continued:
# Screens in order – AID923, TSHR ag, Resorufin autofl, A488 autofl, A647 fluor
CC(C(=O)c1ccccc1)n1c(N2CCOCC2)nc2c1c(=O)n(C)c(=O)n2C (centres undefined)
→ -2.5%, 29%, i, i, 1e-09
CCS(=O)(=O)N1Cc2ccccc2CC1C(=O)OCC(=O)Nc1ccc(C)cc1 (centres undefined)
→ 0.4%, 7%, i, i, 1e-09
COc1ccc(C(CNC(=O)c2cccnc2SC)N2CCOCC2)cc1 (centres undefined)
→ -0.2%, 1%, i, i, 1.2e-08
CCC(=O)c1cc2c(cc1NC(=O)C(C)C)OCCO2
→ 0.8%, ?, i, i, 1e-09
CCOc1ccc(NC2=NC(C)(C)N=C(N)N2)cc1
→ -1.9%, ?, /, /, /
CC(=O)Nc1ccc(S(=O)(=O)NC(=O)C23CC4CC(CC(C4)C2)C3)cc1
→ 3.9%, -2%, /, /, /
CC(=O)c1cccc(NC(=O)Cc2cccs2)c1
→ -0.4%, -4%[11.4 µM], /, /, /
CCn1c(C(O)c2ccc3c(c2)OCO3)nc2ccccc21 (centres undefined)
→ -0.4%, 5%, i, i, 3.7e-09
CSc1ccc2c(c1)N(CCCN(C)C)c1ccccc1S2
→ -0.1%[11.5 µM], 1%[11.4 µM], i, i, 1.6e-08
Cc1ccc2[nH]c(=O)c(CN(Cc3ccco3)S(=O)(=O)c3c(C)ccc4nsnc34)cc2c1
→ 5.1%, 6%, i, i, 4.6e-08
COc1ccc(N2CCN(CCNS(=O)(=O)c3cccc4nsnc34)CC2)cc1
→ 0.3%, -9%, i, i, 1e-09
CCOC(=O)N1CCN(C(=O)CSc2nc(-c3cccc(C)c3)ns2)CC1
→ -0.1%, ?, i, i, 1.4e-08
O=C(NCC(=O)N(Cc1cccs1)C(C(=O)NC1CCCC1)c1ccco1)c1cccs1 (centres undefined)
→ -2.1%, ?, i, i, 1.4e-08
CCN(CC)S(=O)(=O)c1ccc(C(=O)NCc2nnc(SCC(=O)OC)n2C)cc1
→ 1.7%, 3%, i, i, 2e-08
COCCNC(=O)CN(C(=O)CCC(=O)Nc1cc(C)on1)c1ccccc1C
→ 1.5%, 6%, i, i, 1.1e-09
Cc1noc(C)c1S(=O)(=O)NCc1ccc2c(c1)OCO2
→ 0.1%, 1%, /, /, /
CC1CCN(c2nc3c(c(=O)[nH]c(=O)n3C)n2CCSc2nc3ccccc3o2)CC1
→ 2.6%, 4%, i, i, 3.7e-08
C=CCn1c(SCC(=O)Nc2ccccc2OC)nnc1-c1ccco1
→ 0.7%, 7%, i, i, 1.1e-09
N[C@@H](CS(=O)O)C(=O)O
→ -0.9%, -1%, /, /, /
CN1CCN(Cc2c(O)ccc3c(-c4ccccc4)cc(=O)oc23)CC1
→ /, /, i, i, 4.9e-09
CC(=O)c1ccc(Nc2ncnc3c2oc2ccccc23)cc1
→ -0.7%, ?, i, i, 1e-09
CCOc1ccc2[nH]c(=O)c(C(c3nnnn3C3CCCCC3)N3CCN(C)CC3)cc2c1 (centres undefined)
→ 5.0%, 3%, i, i, 1e-09
COC(=O)c1c(C(=O)NCc2ccccc2)ncn1CC(O)COc1ccccc1 (centres undefined)
→ 1.2%, 4%, i, i, 1.9e-09
C[C@@H](C(=O)Nc1ccc2ccccc2c1)[C@H]1C[C@]1(C)[C@H](NC(=O)OCc1ccccc1)c1ccccc1
→ 4.5%, -7%, /, /, /
CC(=O)Nc1cc(S(=O)(=O)C(F)(F)F)ccc1Cl
→ -1.3%, 8%, i, i, 1.4e-08
Cc1c(-c2ccccc2)oc2cc(O)ccc2c1=O
→ -1.6%, ?, i, i, 1e-09
COc1ccc2[nH]cc(CCNc3ncnc4ccc(-c5ccc(C(=O)N(C)C)cc5)cc34)c2c1
→ -2.7%, 5%, i, i, 3.9e-08
Cc1cc(C(F)F)n2nc(C(=O)Nc3cccc(C(F)(F)F)c3)nc2n1
→ -0.3%, -2%, i, i, 1.3e-09
CCOc1cccc(Oc2ccc(C(F)(F)F)cn2)c1
→ 0.0%, 15%, i, i, 1.6e-09
CCOc1ccccc1OCc1nn2c(-c3ccc(C)cc3)nnc2s1
→ -0.1%, ?, i, i, 2.6e-08
CC(=O)NS(=O)(=O)c1ccccc1
→ -0.7%, 13%, i, i, 1e-09
CCNc1oc(COc2ccccc2F)nc1C#N
→ 3.5%, 3%, i, i, 1.7e-08
Cc1nn(C)c(Cl)c1S(=O)(=O)N[C@@H](c1ccccc1)[C@]1(C)C[C@H]1[C@@H](C)C(=O)Nc1ccc2ccccc2c1
→ -4.0%, 18%, /, /, /
CC1C(c2ccccc2)N(C)CCC12NC(=O)NC2=O (centres undefined)
→ -2.7%, 2%, i, i, 4.7e-09
CCN1CCN(Cc2c(OC)ccc3ccccc23)CC1
→ -2.3%, 16%, i, i, 1.8e-08
CCOC(=O)N1CCN(C(=O)CSc2nnc(C3COc4ccccc4O3)o2)CC1 (centres undefined)
→ 0.7%, 10%, /, /, /
Cc1oc(C(=O)O)cc1CSCc1ccoc1C(=O)O
→ 0.7%, 0%, /, /, /
COc1ccc(S(=O)(=O)N2CCC(C(N)=O)(N3CCCCC3)CC2)cc1
→ 0.3%, -1%, /, /, /
CCc1c(C)[nH]c2ccccc2c1=O
→ 0.2%, -4%, i, i, 1.8e-08
Cc1cc2c(c(=O)n1Cc1cccnc1)C(c1ccc(F)cc1)C(C#N)=C(N)O2 (centres undefined)
→ -1.8%, 17%, i, i, 4.9e-09
OCCN1CCOCCN(CCO)CCN(CCO)CC1
→ 0.4%, 2%, i, i, 1e-09
Cc1sc2ncnc(Oc3ccc(-n4ccnc4)cc3)c2c1C
→ -0.2%, ?, i, i, 4.1e-09
COC(=O)COc1ccc(S(=O)(=O)NCc2cccnc2)cc1
→ 1.5%, -2%, i, i, 1.4e-08
COc1ccccc1C(=O)NC(=Nc1nc2ccccc2o1)NC(=O)c1ccccc1OC
→ /, /, i, i, 5.5e-08
Cc1ccc2c(c1)NC(=O)C(CC(=O)NCCN(CC(C)C)CC(C)C)O2 (centres undefined)
→ 2.2%, -3%, /, /, /
CS(=O)(=O)c1ccc2nc(NC(=O)CN3CCCCCC3)sc2c1
→ -1.2%, ?, i, i, 1e-09
COC(=O)c1cc(Br)c(=O)n(-c2cc(C)on2)c1
→ /, /, i, i, 3.2e-08
COC(=O)c1c(NC(=O)c2c(C)noc2C)sc2c1CCCCCC2
→ -1.2%, 15%, i, i, 5.3e-09
CCOc1ccc(C2C3=C(CCCC3=O)Nc3nc(C(F)(F)F)nn32)cc1OC (centres undefined)
→ 0.6%, -3%, i, i, 9.9e-09
CN(C)c1ncnc2ccc(-c3ccccc3C(F)(F)F)cc12
→ -1.1%, ?, i, i, 2.6e-09

# Screens deposited in PubChem by National Center for Advancing Translational Sciences (NCATS).
